Assay outcomes deposited in PubChem BioAssay by National Center for Advancing Translational Sciences (NCATS).
Rango dissoc inh: inhibition of RanGTP-driven Rango-importin beta dissociation. O95149+P62826. Biochemical FRET Rango-importin beta, RanGTP-induced dissociation. AID 540253. 340,000 tested, 0.071% active. Potency, µM (titrated, usually from 46.1 µM), without a hit: at the top dose activity change, negative = inhibition; active means falling FRET ratio curve, often poorly fitted, with flat reads before Ran was added; inconclusive means other falling curves, or compound fluorescence or quenching; inactive means flat or rising ratio curve;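 further: potency means the concentration at half of the fitted maximal effect; % of control where 0% means no effect; nearly all actives have a fitted effect of over 45% in size; -100% = wells without RanGTP and RCC1; the record marks most hits as doubtful in a second field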
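Rango/importin beta premix (0.1/0.25 uM final), PBS + 1 mM DTT + 0.02% Tween-20 + 0.1% BSA; cpd 5 min RT; FRET pre-read; + RanGTP-RCC1 (0.6 uM Ran, 2 mM GTP, 0.2 uM RCC1); 45 min RT; FRET post-read, ex 430, em 486/530 nm.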
GLA inh pH 4.5: blocks human alpha-galactosidase A at pH 4.5 | P06280 | purified enzyme, 4-MU-alpha-Gal fluorescence, pH 4.5 | activity change, negative = inhibition, % at 105 µM | 230,000 tested, under 10 active; inconclusive = small, poorly fitted or top-dose-only inhibition, or a rising curve; inactive = flat fitted curve, though single readings scatter; no compound was filed as active;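 further: 0% = full activity with enzyme and -100% = basal without enzyme; dose as in the result columns while the protocol names 77 µM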
Target sequence (P06280 whole entry, looked up): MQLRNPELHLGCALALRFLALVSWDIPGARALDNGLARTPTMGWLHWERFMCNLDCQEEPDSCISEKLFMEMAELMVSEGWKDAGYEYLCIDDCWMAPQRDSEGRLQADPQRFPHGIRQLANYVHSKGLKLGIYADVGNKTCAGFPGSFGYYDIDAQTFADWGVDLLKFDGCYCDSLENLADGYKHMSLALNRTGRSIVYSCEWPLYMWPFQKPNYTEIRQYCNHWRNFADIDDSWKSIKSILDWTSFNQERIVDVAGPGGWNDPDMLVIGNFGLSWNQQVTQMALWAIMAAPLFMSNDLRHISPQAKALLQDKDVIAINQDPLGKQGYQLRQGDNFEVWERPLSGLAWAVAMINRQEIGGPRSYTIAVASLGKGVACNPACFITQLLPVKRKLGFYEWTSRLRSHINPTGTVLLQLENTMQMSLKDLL
Rango-impB inh: inhibitors of Rango-importin beta complex formation; Q14974; Rango CFP/YFP FRET sensor + importin beta, 45 min; Potency, µM (titrated, usually from 92.2 µM), without a hit: at the top dose inhibition of complex formation; 340,000 tested, 0.031% active; AID 540263; active = rising FRET ratio curve, often small or poorly fitted; inconclusive = mostly compound fluorescence or quenching in the first reads; inactive = flat curves in all reads;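 further: potency means the concentration at half of the fitted maximal effect; 0% = DMSO wells and 100% = buffer wells lacking importin beta; nearly all actives have a fitted effect of over 15% in size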
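FRET biosensor (snurportin 1 IBB flanked by EYFP and cerulean), 50 nM, with compound 5 min, then 0.125 microM importin beta in PBS, 1 mM DTT, 0.02% Tween-20, 0.1% BSA. CFP/YFP ratio read after 45 min at room temperature; pre-read flags interference.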
miR-21 reporter: raises the signal of a miR-21 reporter; 340,000 tested, under 10 active; HeLa miR-21 FLuc reporter, luciferase, 48 h; AID 2288; Potency, µM (series often up to 38.3 µM), inactives show at the highest dose reporter change, positive = more light; active = well fitted rising curve with a large enough effect; inconclusive = small, poorly fitted or top-dose-only effect; inactive = no such curve, though single readings can be large or run the other way;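 further: % of control where 0% means no effect; miR-21 action dims this reporter so a rising signal means less miR-21 action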
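HeLa miR-21-FLuc reporter line, endogenous miR-21; 2000 cells/well in DMEM/10% FBS; compound titration up to ~40uM final, 48 h, 37 degree Celsius; luciferase detection reagent, 15 min lysis, CCD luminescence.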
* = called active by the depositor. These rows are one share of the data; count on the stated rates, not on these rows.

Screening COc1ccc(-n2c(SCC(=O)N3CCCCC3)nnc2-c2cccnc2)cc1 returned Rango dissoc inh -1%, GLA inh pH 4.5 -1, Rango-impB inh -7.2% and miR-21 reporter -1%.
Screening O=C(CN1C(=O)NC2(CCCCC2)C1=O)Nc1ccc(N2CCCCC2)cc1 returned Rango dissoc inh -13% and Rango-impB inh 0.1%.
`CN(C(=O)Nc1cccc([N+](=O)[O-])c1)c1ccccc1` gave Rango dissoc inh 7% and Rango-impB inh 0.1%.
COc1ccc(-c2cc3ccccc3oc2=O)cc1NC(=O)c1ccc(Br)o1 was read as Rango dissoc inh -11%, GLA inh pH 4.5 6, Rango-impB inh -3.6% and miR-21 reporter -26%.
For CCOC(=O)c1cc(-c2cccc([N+](=O)[O-])c2)on1 the results were Rango dissoc inh -4%, GLA inh pH 4.5 6, Rango-impB inh 1.6% and miR-21 reporter 0%.
O=C(O)c1ccc(Cl)c(NCc2ccncc2)c1 was read as Rango dissoc inh -13%, Rango-impB inh -0.3% and miR-21 reporter 2%.
For Cc1cccc(-c2c3c(=O)n(C)c(=O)n(C)c3cn2CCO)c1 the results were Rango dissoc inh 10%, GLA inh pH 4.5 8, Rango-impB inh 2.8% and miR-21 reporter 0%.
For COc1ccc(C(=O)NC(=S)N2CC(C)OC(C)C2)cc1OC (configuration not stated) the results were Rango dissoc inh 3%, GLA inh pH 4.5 2, Rango-impB inh 0.4% and miR-21 reporter -3%.
Screening CC(=O)OC1COC(OC2C(O)C(C)OC(OC3C(OC4CCC5(C)C(CCC6(C)C5CC=C5C7CC(C)(C)CCC7(C(=O)O)CCC56C)C4(C)CO)OCC(O)C3O)C2O)C(O)C1OC(C)=O (configuration not stated) returned GLA inh pH 4.5 -7 and miR-21 reporter 23%.
Screening Cc1ccc(S(=O)(=O)Cn2nnnc2CN2CCN(C(=O)c3ccco3)CC2)cc1 returned Rango dissoc inh 9%, GLA inh pH 4.5 -5, Rango-impB inh 0.7% and miR-21 reporter -2%.
`CCOc1ccc(CCNC(=O)C2CCC(=O)N2C2CCCCC2)cc1OCC` (configuration not stated) gave Rango dissoc inh -7%, GLA inh pH 4.5 10, Rango-impB inh -0.5% and miR-21 reporter -4%.
For CCS(=O)(=O)Nc1ccc(C2=NN(C(=O)c3ccco3)C(c3cccc(F)c3)C2)cc1 (configuration not stated) the results were Rango dissoc inh -13%, GLA inh pH 4.5 2, Rango-impB inh -2.0% and miR-21 reporter 28%.
For Cc1ccc(Cn2c(SCC(=O)NCc3ccco3)nc3ccsc3c2=O)cc1 the results were Rango dissoc inh -24%, GLA inh pH 4.5 2, Rango-impB inh 0.0% and miR-21 reporter -12%.
`Cc1ccc(S(=O)(=O)c2cn(CC(=O)Nc3ccccc3)c3ccc(F)cc3c2=O)cc1` gave Rango dissoc inh 2%, GLA inh pH 4.5 5, Rango-impB inh -2.4% and miR-21 reporter -7%.
Screening CC(=O)c1c(C)oc2ccc(N(C(C)=O)S(=O)(=O)c3cccc4cccnc34)cc12 returned Rango dissoc inh 1%, GLA inh pH 4.5 3, Rango-impB inh 0.8% and miR-21 reporter 13%.
For NC(=O)c1c(NC(=O)c2ccccc2)sc2c1CCN(Cc1ccccc1)C2 the results were Rango dissoc inh inconclusive, Rango-impB inh inconclusive and miR-21 reporter -9%.
Screening Clc1ccccc1CSc1nnc([C@@H]2CCCN2)o1 returned Rango dissoc inh -9%, GLA inh pH 4.5 -6, Rango-impB inh 0.0% and miR-21 reporter -26%.
Screening Cc1ccc(Nc2ncc3c(n2)CC(C)(C)CC3=O)cc1 returned Rango dissoc inh -16%, GLA inh pH 4.5 -3, Rango-impB inh 3.3% and miR-21 reporter -48%.
Screening O=C(Nc1ccc(NC(=O)c2ccccc2Cl)nc1)c1ccco1 returned Rango dissoc inh -2%, Rango-impB inh -4.1% and miR-21 reporter -36%.
CCc1ccc(NS(=O)(=O)c2ccc(C)c(C(=O)N3CCOCC3)c2)cc1 was read as Rango dissoc inh 2%, Rango-impB inh -0.3% and miR-21 reporter 0%.
Screening Cc1ccccc1Nc1nnc(-c2ccc(C(=O)NCCO)cc2)c2ccccc12 returned Rango dissoc inh 2%, Rango-impB inh -3.3% and miR-21 reporter -2%.
CCCCCOc1ccc(NC(=O)c2cc(SC)ccc2Cl)cc1 was read as Rango dissoc inh -2%, GLA inh pH 4.5 -12, Rango-impB inh -0.7% and miR-21 reporter -3%.
Screening CCC(=O)OC1c2ccccc2C(=O)N1Cc1ccccc1 (configuration not stated) returned Rango dissoc inh -1%, GLA inh pH 4.5 -12, Rango-impB inh -0.2% and miR-21 reporter -5%.
For NS(=O)(=O)c1cccc(NC(=O)CSc2nnc3n2CCCCC3)c1 the results were Rango dissoc inh 14% and Rango-impB inh 2.1%.
`C=CCc1c(C)nc2cc(-c3ccccc3)[nH]n2c1=O` gave Rango dissoc inh -5%, Rango-impB inh -0.5% and miR-21 reporter -28%.
COc1ccc(OC)c(C2C(C(C)=O)=C(O)C(=O)N2Cc2cccnc2)c1 (configuration not stated) was read as Rango dissoc inh 5%, GLA inh pH 4.5 -15, Rango-impB inh 0.2% and miR-21 reporter -7%.
`COc1ccccc1/C=C/C=N/N1CCN(Cc2cccc3ccccc23)CC1` gave Rango dissoc inh 0%, GLA inh pH 4.5 -2, Rango-impB inh 0.6% and miR-21 reporter 1%.
COc1cccc(NC(=O)c2nn(C)cc2Br)c1 was read as Rango dissoc inh 36% and Rango-impB inh 5.2%.
Cc1ccc(CS(=O)(=O)CCC(=O)N2CCOCC2)cc1 was read as Rango dissoc inh 6%, GLA inh pH 4.5 7, Rango-impB inh -3.4% and miR-21 reporter 0%.
For COc1ccc(S(=O)(=O)N2CCN(c3ccccc3OC)CC2)cc1OC the results were Rango dissoc inh -6%, GLA inh pH 4.5 6, Rango-impB inh 3.9% and miR-21 reporter -7%.
`COC(=O)c1[nH]c2ccc(C)cc2c1NC(=O)CN1CCN(c2ccc(F)cc2)CC1` gave Rango dissoc inh 11%, GLA inh pH 4.5 -5, Rango-impB inh 3.1% and miR-21 reporter -6%.
Screening CCCC(=O)Nc1ccc(C(=O)NN2C(=O)c3ccccc3C2=O)cc1 returned Rango dissoc inh 1%, GLA inh pH 4.5 -5, Rango-impB inh 0.7% and miR-21 reporter -14%.
Screening CCCOC(=O)c1ccc(OC(=O)c2ccco2)cc1 returned Rango dissoc inh -20%, GLA inh pH 4.5 4, Rango-impB inh 2.5% and miR-21 reporter -24%.
For CC(C)(O)C#Cc1ccc(C(=O)N2CCCC(CCC(=O)NCc3ccccc3F)C2)cc1 (configuration not stated) the results were Rango dissoc inh 5%, Rango-impB inh 0.0% and miR-21 reporter -7%.
`Cc1ccsc1C(=O)NNC(=O)c1ccncc1` gave Rango dissoc inh 18% and Rango-impB inh 0.4%.
`O=C(c1ccco1)N1CCN(c2ccc(N3CCCCC3)nn2)CC1` gave Rango dissoc inh -21% and Rango-impB inh 0.7%.
Screening COc1ccc(-c2nnc(SC(C)C(=O)NC3CC3)o2)cc1 (configuration not stated) returned Rango dissoc inh -6% and Rango-impB inh 2.4%.
C/C=C(/C)C(=O)Nc1cccc(C2=NOC3(C2)C[C@H](C(N)=O)N(C(=O)c2ccc(Cl)cc2)C3)c1 (some centres not stated) was read as Rango dissoc inh 9%, GLA inh pH 4.5 -2, Rango-impB inh -3.4% and miR-21 reporter 9%.
`CC(C)(C)Nc1nc(SCc2ccccc2)nc(N2CCOCC2)n1` gave Rango dissoc inh 18%, GLA inh pH 4.5 -14, Rango-impB inh -0.1% and miR-21 reporter -19%.
Nc1nnn(CC(=O)N/N=C/c2ccc(O)cc2)n1 was read as Rango dissoc inh -4%, GLA inh pH 4.5 -5, Rango-impB inh 0.6% and miR-21 reporter -1%.
O=C(c1cc2c(s1)CCCC2)N1CCN(CCO)CC1 was read as Rango dissoc inh -12% and Rango-impB inh 3.1%.
For Cc1ccc(NC(=O)NCc2cccn2C)cc1C the results were Rango dissoc inh -6%, Rango-impB inh -0.2% and miR-21 reporter -44%.
C[C@H](CO)N1C[C@H](C)[C@@H](CN(C)C)Oc2c(NC(=O)c3ccncc3)cccc2C1=O was read as Rango dissoc inh 27% and Rango-impB inh -6.5%.
O=C(CSc1nnc(NC(=O)C2CC2)s1)NCc1ccc(F)cc1 was read as Rango dissoc inh -2%, Rango-impB inh 0.6% and miR-21 reporter 0%.
O=C(COc1ccc2ccc(=O)oc2c1)Nc1ccc(N2CCCCC2)cc1 was read as Rango dissoc inh inconclusive and Rango-impB inh -0.1%.
O=C(CNc1cccc2ccccc12)N/N=C/c1ccc[nH]1 was read as Rango dissoc inh 21%, GLA inh pH 4.5 -1, Rango-impB inh -0.3% and miR-21 reporter 14%.
Screening CC(=O)N1c2ccc(S(=O)(=O)N(C)CC(=O)N3CCCC3)cc2CC1C (configuration not stated) returned Rango dissoc inh -4%, Rango-impB inh 0.6% and miR-21 reporter 0%.
Screening CCOC(=O)c1sc(NC(C)=O)nc1-c1ccccc1 returned Rango dissoc inh 10%, GLA inh pH 4.5 7, Rango-impB inh -0.2% and miR-21 reporter -14%.
Screening CCOc1ccccc1N(C(=O)Nc1cccc(Cl)c1)C1=NC(C)CS1 (configuration not stated) returned Rango dissoc inh -6%, GLA inh pH 4.5 3, Rango-impB inh -2.1% and miR-21 reporter -12%.
`Cc1nn(-c2ccccc2)c2c1C(c1ccc([N+](=O)[O-])cc1)N1C(=N2)C(=O)Nc2ccccc21` (configuration not stated) gave Rango dissoc inh -1%, GLA inh pH 4.5 -29, Rango-impB inh -0.2% and miR-21 reporter inconclusive.
Screening Cc1ccc(CS(=O)(=O)CCC(=O)NCCN(C)Cc2ccccc2)cc1 returned Rango dissoc inh -12%, GLA inh pH 4.5 3, Rango-impB inh 2.2% and miR-21 reporter -5%.
Screening Cc1ccc(C)c(N2CCN(C(=O)C3CCC3)CC2)c1 returned Rango dissoc inh -20%, Rango-impB inh -1.4% and miR-21 reporter 2%.
CCc1cccc(OCC(=O)Nc2cc(S(=O)(=O)N3CCOCC3)ccc2N2CCCC2)c1 was read as Rango dissoc inh 14%, Rango-impB inh inconclusive and miR-21 reporter -2%.
`O=C(CN(C(=O)CNS(=O)(=O)c1ccc(F)cc1)C1CCCC1)NCc1ccco1` gave Rango dissoc inh 2%, Rango-impB inh -4.0% and miR-21 reporter -2%.
For COc1cccc(C2C(C(N)=O)=C(C)Nc3nc(-c4ccccc4Cl)nn32)c1 (configuration not stated) the results were Rango dissoc inh 2%, GLA inh pH 4.5 -7, Rango-impB inh -1.8% and miR-21 reporter -2%.
For CC[C@H](C)C(C(=O)N1CCN(C(=O)OC(C)(C)C)CC1)n1cc(C(CC(C)C)NC(=O)OC(C)(C)C)nn1 (some centres not stated) the results were Rango dissoc inh 8%, GLA inh pH 4.5 -13, Rango-impB inh -2.0% and miR-21 reporter 2%.
Screening CC(CCc1ccccc1)NC(=O)CSc1nccc(=O)[nH]1 (configuration not stated) returned Rango dissoc inh 8%, GLA inh pH 4.5 -7, Rango-impB inh 0.5% and miR-21 reporter -3%.
`Cc1ccc(S(=O)(=O)N2CCN(CC(=O)N/N=C\c3ccccn3)CC2)cc1` gave Rango dissoc inh 1%, GLA inh pH 4.5 -8, Rango-impB inh -1.7% and miR-21 reporter -4%.

Four compounds from above, ordered by SMILES length, ascending.
Screening Cc1ccc(C)c(N2CCN(C(=O)C3CCC3)CC2)c1 returned Rango dissoc inh -20%, Rango-impB inh -1.4% and miR-21 reporter 2%.
Screening CCOc1ccccc1N(C(=O)Nc1cccc(Cl)c1)C1=NC(C)CS1 (configuration not stated) returned Rango dissoc inh -6%, GLA inh pH 4.5 3, Rango-impB inh -2.1% and miR-21 reporter -12%.
`Cc1nn(-c2ccccc2)c2c1C(c1ccc([N+](=O)[O-])cc1)N1C(=N2)C(=O)Nc2ccccc21` (configuration not stated) gave Rango dissoc inh -1%, GLA inh pH 4.5 -29, Rango-impB inh -0.2% and miR-21 reporter inconclusive.
For CC[C@H](C)C(C(=O)N1CCN(C(=O)OC(C)(C)C)CC1)n1cc(C(CC(C)C)NC(=O)OC(C)(C)C)nn1 (some centres not stated) the results were Rango dissoc inh 8%, GLA inh pH 4.5 -13, Rango-impB inh -2.0% and miR-21 reporter 2%.
